KAT2A inh: blocks human GCN5L2 histone acetyltransferase. Q92830. GCN5L2 HAT assay, ThioGlo1 CoA-SH fluorescence. Potency, µM (highest dose often 58.9 µM), inactives show at the top dose activity change, negative = inhibition, actives largely listed as inhibitors. actives 0.21% (n = 390,000). AID 504327
Target sequence (Q92830 whole entry, looked up): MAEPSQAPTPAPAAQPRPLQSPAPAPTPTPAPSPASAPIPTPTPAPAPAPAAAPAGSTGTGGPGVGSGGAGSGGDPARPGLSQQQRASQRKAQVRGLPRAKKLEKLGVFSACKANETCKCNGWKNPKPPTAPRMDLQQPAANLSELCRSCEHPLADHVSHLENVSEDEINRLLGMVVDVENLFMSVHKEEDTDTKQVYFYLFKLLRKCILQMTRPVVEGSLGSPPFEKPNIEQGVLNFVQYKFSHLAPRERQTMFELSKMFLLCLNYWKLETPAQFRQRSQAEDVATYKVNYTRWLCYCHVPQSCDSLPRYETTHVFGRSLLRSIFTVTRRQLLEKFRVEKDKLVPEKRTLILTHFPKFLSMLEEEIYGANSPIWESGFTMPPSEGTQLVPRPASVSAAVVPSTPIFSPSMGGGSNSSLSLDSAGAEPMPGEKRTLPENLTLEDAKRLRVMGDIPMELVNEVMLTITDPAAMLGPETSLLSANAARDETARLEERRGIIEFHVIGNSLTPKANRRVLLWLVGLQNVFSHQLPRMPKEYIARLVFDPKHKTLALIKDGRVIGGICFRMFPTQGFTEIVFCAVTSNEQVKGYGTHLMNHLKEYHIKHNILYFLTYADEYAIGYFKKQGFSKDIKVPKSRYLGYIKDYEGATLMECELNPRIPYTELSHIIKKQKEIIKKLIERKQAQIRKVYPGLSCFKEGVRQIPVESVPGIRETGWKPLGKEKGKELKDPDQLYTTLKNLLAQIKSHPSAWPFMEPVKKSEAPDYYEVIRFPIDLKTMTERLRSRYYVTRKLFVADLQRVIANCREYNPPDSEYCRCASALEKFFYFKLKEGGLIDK
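Preincubate 20nM GCN5L2 with compound 15 min, RT → add 50uM ThioGlo1 + 75uM H3(1-25) + 70uM acetyl-CoA → read fluorescence 0 and 20 min. Primary qHTS; fluorescent artifacts likely.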
FEN1 inh: blocks human flap endonuclease 1 | Recombinant FEN1 flap cleavage, fluorescence, 15 min | Potency, µM (doses to about 114 µM), for the others: at the top dose activity change, negative = inhibition, hits mostly inhibitors | P39748 | actives 0.35% (n = 390,000); also: nearly all actives have a fitted effect of over 65% in size
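Recombinant FEN1 (10 nM) was preincubated with pin-transferred compounds for 15 min at room temperature, then flap DNA substrate (50 nM final) was added. Plates were read at 0 and 15 min, and normalized concentration–response data were fitted to a four-parameter Hill equation.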
* marks the source's active call; other numbers are inactive results; ? = inconclusive; . = no result given; [ ] = dose if it differs, or a comment. Calls follow the shape of the dose curve; as a rule, active = well fitted curve in the direction sought with a large enough effect; inconclusive = small, poorly fitted or top-dose-only effect, or another doubt; inactive = no such curve, though single readings can be large; an effect the other way counts as inactive or inconclusive. % is scaled to controls: 0 for no effect and ±100 for the full control effect; potency is read from the fitted curve at half-maximal effect.

smiles	KAT2A inh	FEN1 inh
CCC(=O)NCc1cc(-c2nn(C)c(=O)c3ccccc23)ccc1C	-6%	0%
O=C(NCc1cccs1)c1ccc2ccccc2n1	-7%	-9%
CCOc1ccc(NC(=O)Cn2cc(C(=O)c3ccc(OC)cc3)c(=O)c3cc4c(cc32)OCO4)cc1	2%	12%
Cn1c(/C=C/c2ccc(Cl)cc2)nc2ccccc2c1=O	-21%	0%
O=C(CCc1ccccc1)N1CCc2c([nH]c3ccccc23)C1c1ccc(F)cc1 (configuration not stated)	-20%	-2%
Cc1cccc(NC(=O)c2nc[nH]c2C(=O)N[C@@H](CCCCNC(=O)OC(C)(C)C)C(=O)OC(C)(C)C)c1	-22%	-7%
O=C(COc1ccccc1Cl)OCc1cc(=O)n2nc(-c3cccs3)sc2n1	-11%	-14%
CC(C)c1ccc(NC(=O)c2cc(S(=O)(=O)N(C)C3CCCCC3)ccc2F)cc1	-7%	8%
COc1ccc(S(=O)(=O)N2CCOCC2)cc1NC(=O)c1ccccc1C	-13%	-9%
Cn1c(=O)c2c(nc(CN3CCN(C(=O)c4ccco4)CC3)n2Cc2cccc(Cl)c2)n(C)c1=O	-3%	14%
O=C(NCCO)c1cc2ccccc2c(=O)s1	-23%	1%
O=C(COc1ccc(F)cc1)Nc1ccc(-n2cnnn2)cc1	8%	0%
COc1ccc(OC)c(NC(=O)CN2C(=O)COc3ccc(S(=O)(=O)NC4CCCC4)cc32)c1	-2%	-15%
Nn1c(SCc2cccc(Br)c2)nnc1-c1ccncc1	2%	3%
Cc1cccc(NC(=S)NC2CCSc3ccccc32)c1 (configuration not stated)	-4%	-5%
O=C(CC1C(=O)NCCN1Cc1cccc(Oc2ccccc2)c1)NCCc1cscn1 (configuration not stated)	-4%	14%
O=C(Nc1ccc(CN2CCOCC2)cc1)c1ccc(Cl)cc1	-4%	5%
CC(=O)c1c(C)n(-c2ccccc2)c2ccc(OCC(O)CN3CCOCC3)cc12 (configuration not stated)	1%	-9%
COC(=O)c1ccccc1NC(=O)N1CCc2ccc(NC(=O)c3ccccn3)cc2C1	?	-1%
O=C1NC2=C(C(=O)CCC2)C(c2ccccc2[N+](=O)[O-])N1 (configuration not stated)	-3%	-6%
Cc1ccc(C2CCN(C(=O)c3cnn(-c4ccccc4Cl)c3C3CCN(C(=O)OC(C)(C)C)CC3)C2)cc1 (configuration not stated)	0%	-13%
N#Cc1ccccc1Oc1ccc(S(=O)(=O)N2CCCCC2)cn1	-2%	8%
NS(=O)(=O)c1cc2c(cc1Cl)NC(CSCc1ccccc1)=NS2(=O)=O	-3%	0%
O=C(Nc1ccccn1)c1ccc(COc2ccccc2Cl)o1	-5%	-18%
CCCc1cc(=O)n2[nH]c(C(F)(F)F)nc2n1	?	-4%
O=C(CCC1N=C2c3ccccc3N=C(SCc3cccc(Cl)c3)N2C1=O)N1CCN(c2ccccc2)CC1 (configuration not stated)	-9%	6%
CCOc1ccc(C2C(=O)N(C3CCCCCC3)CC(=O)N2CCc2ccc(Cl)cc2)cc1OC (configuration not stated)	-7%	7%
CCOC(=O)c1[nH]c(C)c(C(=O)OCC(=O)N(CC)C2CCS(=O)(=O)C2)c1C (configuration not stated)	-11%	5%
COc1ccc(C[C@@H]2CN3C(=NC[C@@H]3C)N2C[C@H](C)NC(=O)CCC2CCCCC2)cc1	0%	-7%
CCCCc1sc(-c2c(C#N)c(N)nc3c2CCCCC3)cc1[N+](=O)[O-]	-15%	2%
CCOC(=O)c1c(-c2ccc(F)cc2)csc1NC(=O)CCN1C(=O)c2ccccc2C1=O	-5%	8%
N#CCCn1c(SCC(=O)Nc2ccc(N3CCOCC3)cc2)nc2ccccc21	4%	-4%
Cc1ccc(C)c(NC(=O)c2ccc(OC(=O)c3ccco3)cc2)c1	-20%	15%
O=C(C1CC(=O)N(c2ccc(Cl)cc2)C1)N1CCOCC1 (configuration not stated)	-10%	5%
O=C1NC(c2cc3c(cc2Cl)OCO3)Oc2ccccc21 (configuration not stated)	-3%	-5%
Cc1c(Cc2ccccc2)c(=O)oc2cc(O)cc(O)c12	-7%	1%
Cc1ccc(C(=O)Nc2ncc(C)s2)s1	-8%	-9%
COc1ccc(NC(=O)c2ccc(COc3ccccc3)o2)c(OC)c1	1%	-23%
Cc1ccc(NCC(=O)c2ccccc2)cc1Cl	3%	-3%
CC(=O)c1cn(CC(=O)Nc2ccc(C)cc2)c2ccccc12	-5%	41%[activator]
CCCCCCn1c(=O)c(Cc2ccccc2)c(O)c2ccccc21	-9%	-2%
Cc1ccc(CSc2nn3c(=O)c(C)nnc3s2)cc1	-4%	-1%
CCOC(=O)c1c(-c2ccc(OC)cc2)cn2ccccc12	?	-13%
O=c1[nH]c2ccc(NC(=S)Nc3ccc(F)cc3)cc2[nH]1	11%	-6%
CCOc1ccc(-c2cc(CCCC(=O)N3CCN(c4ccc(OC)cc4)CC3)no2)cc1	1%	16%

(continued)
The line under a structure holds: KAT2A inh | FEN1 inh
- O=C(NC1CCN(Cc2ccccc2)CC1)C12CC3CC(CC(C3)C1)C2
  -2% | -10%
- CCCCC(CC)CNC(=O)c1ccc2c(c1)OCO2 (configuration not stated)
  -1% | -21%
- Cc1ccc(C(=O)NNC(=O)C2CCN(c3nc(C)cc(C)n3)CC2)cc1
  -6% | -1%
- COCCN1C(=O)c2ccccc2C(C(=O)N2CCN(c3ccccc3)CC2)C1c1ccc(F)cc1 (configuration not stated)
  -5% | -12%
- CCS(=O)(=O)N1Cc2ccccc2CC1C(=O)Nc1ccc(C)cc1 (configuration not stated)
  1% | -2%
- C/C(CC(=O)Nc1ccccc1C)=N\NC(=O)Cc1csc(N)n1
  -25% | -2%
- Cn1cccc1C(=O)C(=O)Nc1ccc(Cl)cc1
  -11% | -4%
- CCCNS(=O)(=O)c1ccc(C(=O)NCC2CCCO2)cc1 (configuration not stated)
  -10% | -2%
- CCOc1cc(C(=O)Nc2cc(C)on2)cc(OCC)c1OCC
  -2% | -1%
- CC(=O)c1cccc(S(=O)(=O)N2CCn3cccc3C2C)c1 (configuration not stated)
  -2% | -1%
- COc1cc(OC)c(NC(=O)c2cc3c(=O)oc4ccc(C)cc4c3s2)cc1Cl
  -2% | 4%
- CS(=O)(=O)c1ccccc1C(=O)N1CCN(S(=O)(=O)c2ccc(C3CCCCC3)cc2)CC1
  -4% | -12%
- CCOc1ccccc1CNC(=O)c1cc2c(=O)n(Cc3ccco3)ccc2nc1C
  8% | -8%
- C/C(CC(=O)NCc1ccccc1)=N\NC(=O)c1cnccn1
  -7% | 24%
- COc1c(F)c(F)c(C(=O)Nc2ccccc2N2CCN(C(C)=O)CC2)c(F)c1F
  . | 5%
- COC(=O)c1cn(NC(=O)c2cccc(N(C)C)c2)c(=O)c2ccccc12
  -3% | -3%
- COc1ccc(CC2(CO)CCN(S(=O)(=O)N(C)C)CC2)cc1
  -2% | -9%
- CC(C)C1CC(CCN)(Cc2ccccc2)CCO1 (configuration not stated)
  -11% | 16%
- COc1ccc2nc(NC(=O)CSc3nnc(C)n3N)sc2c1
  -1% | -6%
- CC(C)c1ccc(C(C(=O)NC2CCCCC2)N(C(=O)c2ccccn2)c2cccnc2)cc1 (configuration not stated)
  -6% | -3%
- COc1cccc2cc(C(=O)NCCC3=CCCCC3)c(=O)oc12
  -10% | -8%
- CCOc1ccc2nc(N3CCCC(C(=O)NCCc4ccc(Cl)cc4)C3)sc2c1 (configuration not stated)
  -7% | -9%
- COC(=O)c1c(NC(=O)c2cccs2)sc2c1CCCC2
  -15% | -1%
- Cc1cc(/C=N\NC(=O)CC(=O)NC2CCCCC2)c(C)n1-c1ccc(Cl)c(Cl)c1
  -11% | -20%
- Cc1ccc(NC(=O)CSc2nc3[nH]ncc3c(=O)[nH]2)c(C)c1
  -3% | -6%
- COc1ccc2c(c1)O[C@H](c1ccc3c(c1)OCO3)[C@@H](OC(=O)N[C@H]1CCCc3ccccc31)C2=O
  -8% | 8%
- Cc1occc1-c1n[nH]c(=S)n1CC(C)C
  2% | 9%
- O=C(CCCc1nc2ccccc2s1)NCc1ccc(F)cc1
  3% | 0%
- COc1cc(CNC2CCCC2)c(Br)cc1OC1CCCC1
  -1% | -1%
- Clc1ccc(-c2nnn(Cc3nc4ccccc4s3)n2)cc1
  -1% | -11%

A different layout for some results above:
CC(C)c1ccc(C(C(=O)NC2CCCCC2)N(C(=O)c2ccccn2)c2cccnc2)cc1 (configuration not stated)
  KAT2A inh = -6% | FEN1 inh = -3%
COc1cccc2cc(C(=O)NCCC3=CCCCC3)c(=O)oc12
  KAT2A inh = -10% | FEN1 inh = -8%

Next entries.
The line under a structure holds: KAT2A inh | FEN1 inh
- CCO[C@@H]1OC(C(=O)NC2CC2)=C[C@H](c2ccc(Br)cc2)[C@H]1CCCO
  -5% | -1%
- Cc1c(NC(=O)C(C)OC(=O)c2c3c(nc4ccccc24)CCC3)c(=O)n(-c2ccccc2)n1C (configuration not stated)
  -26% | -3%
- COc1ccc(-c2ccnc3nc(/N=C/N(C)C)nn23)cc1
  -23% | 15%
- Cc1ccc(Cc2cnc(NC(=O)c3ccc4c(c3)CC(c3ccccc3)OC4=O)s2)cc1 (configuration not stated)
  -20% | 5%
- CC(=O)c1cccc(NC(=O)c2ccc3c(c2)N(Cc2ccc(C)cc2)CCS3)c1
  4% | -12%
- Cc1ccc(/C=N/NC(=O)c2nnn(-c3nonc3N)c2CSc2ccc(Cl)cc2)o1
  -9% | -14%
- Cc1ccc(C)c(NC(=O)C(NCC(C)(C)N2CCOCC2)c2ccccc2)c1 (configuration not stated)
  -2% | 31%[activator]
- CC(C)CC(NC=C1C(=O)OC(C)(C)OC1=O)C(=O)O (configuration not stated)
  0% | 0%
- CC1=C(C(=O)OC(C)C)C(c2c[nH]c3ccccc23)n2ncnc2N1 (configuration not stated)
  0% | -3%
- COC(=O)[C@@H](NC(=O)N1CCN(c2cccc(C(F)(F)F)c2)CC1)C(C)C
  -1% | 14%
- CC(Oc1ccc(C(=O)NCCc2ccccc2)cc1)C(=O)O (configuration not stated)
  -3% | -11%
- O=C(Nc1cccn2ncnc12)C(Cl)Cl
  9% | 2%
- O=C(c1ccc(N2CCC3(CC2)OCCO3)c([N+](=O)[O-])c1)N1CCOCC1
  -10% | -11%
- COc1ccc(CCNC(=O)CN(CCc2ccccc2)S(C)(=O)=O)cc1OC
  -4% | 8%
- CN1CCN(S(=O)(=O)c2cccc(C(=O)Oc3cccc(Br)c3)c2)CC1
  -1% | -3%

Arranged by length of the SMILES (falling): three of the compounds above
The line under a structure holds: KAT2A inh | FEN1 inh
- CCO[C@@H]1OC(C(=O)NC2CC2)=C[C@H](c2ccc(Br)cc2)[C@H]1CCCO
  -5% | -1%
- Cc1ccc(C)c(NC(=O)C(NCC(C)(C)N2CCOCC2)c2ccccc2)c1 (configuration not stated)
  -2% | 31%[activator]
- COc1ccc(CCNC(=O)CN(CCc2ccccc2)S(C)(=O)=O)cc1OC
  -4% | 8%

(more compounds)
The line under a structure holds: KAT2A inh | FEN1 inh
- O=C(N/N=C/c1cccn1-c1cccc(C(=O)O)c1)Nc1ccccc1
  -13% | 2%
- COc1ccc(C(=O)NCCc2c[nH]c3ccccc23)cc1[N+](=O)[O-]
  -15% | -4%
- COC(=O)c1ccc(NC(=O)c2cccc(NC(=O)c3ccccc3)c2)cc1
  -15% | 3%
- Nc1c(C(O)(C(F)(F)F)C(F)(F)F)cc(C(O)(C(F)(F)F)C(F)(F)F)c2ccccc12
  -9% | -6%
- NC(=O)c1cccc(C(N)=O)n1
  -4% | -3%
- CC(=O)c1ccc(NC(=O)c2nc(-c3ccccc3)n(-c3ccc(Cl)cc3)n2)cc1
  -7% | -9%
- COC(=O)[C@@H](Cc1c[nH]c2ccccc12)NC(=O)CNC(=O)c1ccccc1OC
  2% | 2%
- O=C(COC(=O)c1ccccc1Nc1ccccc1)NCc1ccccc1Cl
  0% | 10%
- O=C(Nc1ccccc1Cl)C1CCCN(S(=O)(=O)c2ccc(F)cc2)C1 (configuration not stated)
  -6% | -4%
- COc1cccc(/C=C/C(=O)OCC(=O)Nc2ccc(Cl)c(S(=O)(=O)N(C)C)c2)c1OC
  -11% | -11%
- COc1cccc(NC(=O)Cn2c3ccc(F)cc3c3nc4n(c(=O)c32)CCCS4)c1
  -12% | -6%
- O=C(c1ccccc1[N+](=O)[O-])N1CCCN(C(=O)c2ccccc2[N+](=O)[O-])CC1
  -3% | -5%
- O=C(NNc1ccc([N+](=O)[O-])cc1)C1C2CCCCC21 (configuration not stated)
  -6% | 0%
- O=S(=O)([O-])C(c1ccccc1)[n+]1ccccc1 (configuration not stated)
  -12% | 16%
- CC(Sc1nnc(-c2ccco2)o1)C(=O)NCCC1=CCCCC1 (configuration not stated)
  -5% | -2%
- Cc1ccc(N=C2NC(=O)CS2)c(C)c1
  3% | 5%

5 neighbouring compounds already listed, for reference:
The line under a structure holds: KAT2A inh | FEN1 inh
- O=C(N/N=C/c1cccn1-c1cccc(C(=O)O)c1)Nc1ccccc1
  -13% | 2%
- COc1ccc(C(=O)NCCc2c[nH]c3ccccc23)cc1[N+](=O)[O-]
  -15% | -4%
- COC(=O)c1ccc(NC(=O)c2cccc(NC(=O)c3ccccc3)c2)cc1
  -15% | 3%
- Nc1c(C(O)(C(F)(F)F)C(F)(F)F)cc(C(O)(C(F)(F)F)C(F)(F)F)c2ccccc12
  -9% | -6%
- NC(=O)c1cccc(C(N)=O)n1
  -4% | -3%

Compound activity as filed in PubChem BioAssay.

Some of the compounds tested; most or all hits stand in other tables.
